Bioassay records (PubChem BioAssay)
TRPML1 blocker – blocks the human TRPML1 channel; 0.02% of 390,000 active; AID 624415; activity change, negative = inhibition, % (no concentration beside the values); TRPML1-inducible cells, Ca2+ dye fluorescence, FDSS; active compounds read low; inhibition of EC80 agonist-evoked calcium signal; Q9GZU1; in the data active means activity change below about -50%; inconclusive means about -30% to -50%; inactive means above about -30%;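 note: stimulus is agonist 54-4 at its EC80 concentration; % is set by controls: 0 for no effect and ±100 for the full control effect; compound concentration not given in the record; the text of the record puts the active cut at -80%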
Target sequence (Q9GZU1 whole entry, looked up): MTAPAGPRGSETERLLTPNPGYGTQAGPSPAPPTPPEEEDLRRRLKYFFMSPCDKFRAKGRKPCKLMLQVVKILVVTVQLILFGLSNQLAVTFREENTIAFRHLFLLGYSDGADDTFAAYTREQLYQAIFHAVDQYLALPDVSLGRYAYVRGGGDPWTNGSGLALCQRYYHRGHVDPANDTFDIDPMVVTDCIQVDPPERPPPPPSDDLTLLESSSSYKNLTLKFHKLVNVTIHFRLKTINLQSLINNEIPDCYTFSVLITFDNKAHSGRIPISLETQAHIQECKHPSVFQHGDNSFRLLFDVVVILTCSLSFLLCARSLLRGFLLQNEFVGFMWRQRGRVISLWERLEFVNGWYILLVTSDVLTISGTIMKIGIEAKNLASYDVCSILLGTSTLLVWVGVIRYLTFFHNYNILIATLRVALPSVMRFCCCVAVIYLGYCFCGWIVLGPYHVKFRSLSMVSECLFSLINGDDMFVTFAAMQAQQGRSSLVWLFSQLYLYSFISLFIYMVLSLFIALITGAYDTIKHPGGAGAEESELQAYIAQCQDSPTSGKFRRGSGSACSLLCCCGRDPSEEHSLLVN
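TRPML1-DL cells, Tet-induced overnight (~16 h, 37 °C) at 1,500 cells/well, were loaded with Ca8 no-wash dye plus quencher for 45-90 min at room temperature. Compounds were pinned during FDSS kinetic reading; agonist 54-4 at EC80 (4 uM final) then added.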
TRPML1 ag – agonists of human TRPML1 channel; Q9GZU1; activation, % (no concentration beside the values); 0.12% of 410,000 active; AID 624414; TRPML1-expressing cells, Ca2+ dye fluorescence, FDSS; host cell line not named in the record; reference of the full effect not given here; in the data active = activation above about 50%; inconclusive = about 30% to 50%; inactive = below about 30%; note: 0% is about no effect; the text of the record puts the active cut at 80%
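Tet-induced TRPML1-DL cells, 1,500 per well, cultured overnight, were loaded with a no-wash Ca2+ dye for 45–90 min. Calcium fluorescence was recorded on the FDSS for 110 s after compound addition, before the EC80 agonist (4 uM 54-4) was added.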
gsp antag – antagonists of gsp mutant (McCune-Albright syndrome) | gsp-mutant cells, cAMP HTRF, 30 min; control for the full effect not named in the record | Potency, µM (doses to about 76.9 µM), without a hit: at the top dose activity change, negative = inhibition, most hits filed as inhibitors | 0.4% of 340,000 active; active = falling curve of any shape with a large fitted effect; inconclusive = falling curve, mostly with a smaller effect; inactive = flat or rising curve; cell line not stated here;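 note: intracellular cAMP measured with PDE inhibitor Ro 20-1724 present during compound exposure; potency is the fitted concentration of half-maximal effect; % is set by controls: 0 for no effect and ±100 for the full control effect; nearly all actives have a fitted effect of over 65% in size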
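G418-selected cells were plated in DMEM/10% FBS for 16-24 h at 37C, then treated with compounds plus the PDE inhibitor […] (300 uM solution added) for 30 min at 37C. Intracellular cAMP was measured by HTRF after 30 min lysis at room temperature.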
Menin MLL FP FL – menin-MLL binding inhibition, fluorescein peptide | FP activity change, % at 61.4 µM | 290,000 tested, under 10 active | Fluorescence polarization, fluorescein-MLL peptide displacement from menin | AID 1766; inconclusive = falling polarisation curve, or a change in total fluorescence; inactive = total fluorescence flat and polarisation flat or rising; no compound was filed as active; the % refers to the polarisation; negative = inhibition;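 note: % of control where 0% means no effect; inhibitors lower the polarisation; unlabelled MLL peptide was the positive control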
gsp agonist – activates gsp, the McCune-Albright syndrome mutation; gsp mutant cells, cAMP HTRF, 30 min; control for the full effect not named in the record; Potency, µM (series often up to 76.9 µM), for the others: top-dose activation (cAMP increase), most hits filed as activators; 0.13% of 340,000 active; AID 624287; active = well fitted activation curve with a large enough effect; inconclusive = small, poorly fitted or top-dose-only effect, or another doubt; inactive = no such curve, though single readings can be large or run the other way; cell line not stated here;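 note: phosphodiesterase inhibitor Ro 20-1724 added with compounds to block cAMP breakdown; potency is the fitted concentration of half-maximal effect; nearly all actives have a fitted effect of over 60% in size; about a fifth of the inactives were tested at one dose only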
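Cells in DMEM/10% FBS with G418 were pretreated with compounds in DMSO plus […] (300 uM stock) for 30 min at 37C. cAMP was measured by HTRF (cAMP-d2 plus anti-cAMP antibody-K) after 30 min at room temperature.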
ClpP mod – qHTS Assay for Activators of ClpP. ATP-dependent Clp protease proteolytic subunit (Bacillus subtilis (strain 168)), P80244. purified B. subtilis ClpP, FRET peptide cleavage, 20 min. Potency, µM (titrated, usually from 57.5 µM), for the others: at the top dose activity change, negative = active. 1.9% of 340,000 active; active = well fitted falling curve with a large enough effect; inconclusive = small, poorly fitted or top-dose-only effect; inactive = no such curve, though single readings can be large or run the other way; note: potency is the fitted concentration of half-maximal effect; the source files actives as falling curves though it sought activators and does not explain the sign; nearly all actives have a fitted effect of over 65% in size; many hits overshoot -100%
Target sequence (P80244 whole entry, looked up): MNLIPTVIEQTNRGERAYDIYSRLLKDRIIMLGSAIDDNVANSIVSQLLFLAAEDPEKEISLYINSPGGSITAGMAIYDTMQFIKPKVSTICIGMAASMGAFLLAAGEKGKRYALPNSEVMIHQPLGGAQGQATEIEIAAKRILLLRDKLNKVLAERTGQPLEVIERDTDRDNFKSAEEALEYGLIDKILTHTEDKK
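Buffer: 100 mM Tris/HCl pH8, 100 mM KCl, 0.05% low protease BSA, 2.5% glycerol, 0.01% Tween-20. ClpP 10 microg/mL final; 20 min RT; delta FRET normalized to ADEP and DMSO controls.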
Active calls of the source: *; u = inconclusive; x = not tested or not shown; & = joins results of further samples; [ ] = another dose, or the depositor's remark.

SMILES	TRPML1 blocker	TRPML1 ag	gsp antag	Menin MLL FP FL	gsp agonist	ClpP mod
COc1cc2c(cc1OC)C1=C(C#N)CCC(=NC(=O)c3ccc(Cl)cc3)N1CC2	4.8	0.7	18.7%	3.5	-39.1%[inhibitor]	0.9%
CCn1c(Oc2ccc(F)cc2)nc2c1c(=O)n(C)c(=O)n2C	-19.3	0.3	-6.1%	0.1	u	-0.7%
O=S(=O)(NCc1ccc(F)cc1)c1ccc(-n2cnnn2)cc1	-3.7	0.4	-8.4%	x	-54.2%[inhibitor]	-1.8%
CC1CC(C)(C)NC(=S)N1CCCC(=O)Nc1ccccc1F (stereo not drawn)	19.5	-0.3	16.2%	0.4	-1.0%[15.4 µM]	-0.7%
C[C@H](CO)N1C[C@H](C)[C@@H](CN(C)CC2CCCCC2)Oc2c(NS(=O)(=O)c3cccs3)cccc2C1=O	-8.7	-0.6	-0.4%	x	x	-4.6%
CCOc1ccc(CCNC(=O)C2=C(C)C(=O)OC23CCC(C)CC3)cc1OCC (stereo not drawn)	-18.9&14.2	1.0&0.1	-7.9%	-6.2	-12.0%	-0.9%&0.2%
COc1cccc(NC(=O)Nc2ccc3c(c2)OCO3)c1	8.4	0.8	-4.3%	-0.7	u	-1.1%
COc1ccc(CNC(=O)C2(CC3CC(c4ccccc4)=NO3)CCN(C(=O)CCCCCBr)CC2)cc1 (stereo not drawn)	9.9	0.6	-6.0%	x	-29.7%	-3.4%
O=c1c2sccc2nc(SCc2cc(=O)n3cc(Cl)ccc3n2)n1Cc1ccccn1	-0.4	0.4	-5.2%	3.3	1.9%[15.4 µM]	x
COc1cccc(OCC(=O)NC2CC(=O)N(c3ccc4c(c3)OCCO4)C2)c1 (stereo not drawn)	7.4	-0.1	x	x	x	-0.2%
Cc1nn(CC(=O)OC(C)C(=O)Nc2ccccc2[N+](=O)[O-])c(C)c1[N+](=O)[O-] (stereo not drawn)	-5.8	-0.7	2.8%	3.8	-19.1%	-1.8%
COc1cc(C2c3c(oc4ccc(C)cc4c3=O)C(=O)N2Cc2ccccc2)ccc1O (stereo not drawn)	6.3	0.1	x	x	x	-1.6%
CCOC(=O)C1CCCN(c2c(NCCc3ccccc3)c(=O)c2=O)C1 (stereo not drawn)	9.4	0.6	-9.5%	6.1	5.3%[15.4 µM]	x
COc1ccc(CC(NC(C)=O)C(=O)NC2CCN(C(=O)Nc3ccc(Cl)cc3)CC2)cc1OC (stereo not drawn)	-13.3	6.3	11.6%	0.1	5.7%	-0.2%
O=C(COc1ccc(Br)cc1Cl)Nn1cnnc1	-0.2	0.4	11.3%	-4.8	-8.7%[15.4 µM]	x
O=C(NCCCN1CCN(c2ccc(F)cc2)CC1)c1cnn(-c2ccc(F)cc2)c1-n1cccc1	-5.2	2.1	x	x	x	-2.8%
CC(NC(=S)N1CCOCC1)c1ccccc1 (stereo not drawn)	13.4	-0.3	17.3%	3.5	-12.7%	-0.5%
CC1CN(S(=O)(=O)c2cc(C(=O)NCc3ccncc3)ccc2Cl)CC(C)O1 (stereo not drawn)	8.8	-0.7	2.2%	x	-26.9%	0.4%
O=C(CN1C(=O)c2cccc3cccc(c23)C1=O)N1CCN(Cc2ccc3c(c2)OCO3)CC1	-14.4	1.0	u	2.0	3.7%	25.1µM*
Cc1ccc(C(=O)N2CCN(c3cc(=O)[nH]nc3-c3ccccc3)CC2)cc1	8.8	3.8	1.4%	3.8	-1.9%	0.3%
O=C(COCc1cc(-c2ccc3c(c2)OCO3)on1)N1CCN(c2ccc(F)cc2)CC1	47.4	0.7	1.6%	-6.5	u	x
CCC(C)(C)NC(=O)CN(C(=O)c1snc(C(N)=O)c1N)c1ccc2c(c1)OCCO2	-7.8	-0.7	-6.3%	1.8	-2.6%	-2.3%
COC(=O)C(O)(CC(=O)Nc1cc(OC)c(OC)c(OC)c1)C(F)(F)F (stereo not drawn)	1.4	-0.6	9.5%	3.0	1.8%	-6.4%
S=C(NCCN1CCOCC1)Nc1ccc(Cl)c(Cl)c1	-11.8	0.7	1.4%	1.2	-0.8%	-1.2%
CCOc1cccc(C(=O)Nc2cccc(-c3nc4ncccc4o3)c2C)c1	-13.0	1.2	u	4.4	-1.4%	-3.2%
Cc1ccnc(NC(=O)C(Cc2ccccc2)NC(=O)c2ccccc2)c1 (stereo not drawn)	-1.4	-1.3	-7.4%	x	u	0.2%
Cn1nnnc1SCCNCc1ccccc1OCc1ccccc1	-7.4	-0.2	5.2%	1.8	-5.7%	1.2%
COc1ccc(OC)c(CNC(=O)CCCn2nc(C)c3c(C)n(-c4ccc(C)cc4)nc3c2=O)c1	14.1	4.1	x	x	x	-2.7%
Cc1nonc1OCCNCc1c(C(=O)N(C)C)nc2ccc(Cl)cn12	-12.9	-0.7	1.3%	-2.0	-0.2%[15.4 µM]	x
O=C(O)CNC1=NCCCCC1	-2.1	0.5	8.2%	12.7	-7.4%	-1.2%
CCOc1cccc(NC(=O)C2CC(=O)NC(=Nc3ccccc3)S2)c1 (stereo not drawn)	24.9	0.0	-2.6%	2.2	0.3%	0.2%
COc1ccc(NC(=O)O/N=C2/CCCc3ccc(OC)cc32)cc1	11.7	2.9	-17.4%	-1.0	-26.5%	-10.4%
COC(=O)C(=C/C(C)=C/c1cccnc1)C(=O)OC	13.7	-0.3	-5.6%	-0.8	15.5%	x
COC(=O)c1ccc(CNC(=O)Cn2cnc3c(SC)nc(N)nc32)cc1	12.9	-1.1	3.7%	x	x	-5.7%
CC(OC(=O)C1=COCCO1)C(=O)Nc1ccccc1C#N (stereo not drawn)	-7.3	0.5	-1.0%	4.4	8.4%[15.4 µM]	x
Cc1cc(OCC(=O)OCC(=O)NCCN2C(=O)CSC2=O)ccc1Cl	8.1	-0.3	-6.4%	x	u	0.3%
O=C1CCCC(O)=C1N=Nc1c(Cl)cc(C(F)(F)F)cc1Cl	-8.2	0.4	-4.0%	-1.0	16.2%[15.4 µM]	x
Cc1c(NS(=O)(=O)c2ccc(N(C)C3CCCCC3)c([N+](=O)[O-])c2)c(=O)n(-c2ccccc2)n1C	8.4	0.2	-4.5%	1.8	-3.0%	u
Cc1ccc2[nH]c3c(Cl)ncnc3c2c1	29.2	0.6	-6.5%	1.3	-6.8%[15.4 µM]	x
Cc1cc(Cl)ccc1OCC(=O)N(Cc1ccco1)c1c(N)n(Cc2ccccc2)c(=O)[nH]c1=O	3.4	4.2	-6.7%	x	5.9%	-4.3%
O=C(O)CC(c1ccc(F)cc1F)N1Cc2ccccc2C1=O (stereo not drawn)	1.5	1.0	6.6%	4.3	-3.9%	x
CCCN(C(=O)c1cc2c(Cl)nc3ccccc3c2s1)c1cccc(C)c1	31.2	1.5	x	x	x	-4.4%
CC(C)(C)c1ccc(C(=O)Nc2ccc3c(c2)CCCN3C(=O)c2cccs2)cc1	-8.7	0.2	x	x	x	-2.3%
CC1CCN(S(=O)(=O)c2ccc(NC(=O)CCN3C(=O)C4CC=CCC4C3=O)cc2)CC1 (stereo not drawn)	-8.1	-1.2	-14.9%	x	1.8%	0.7%
CC(Oc1ccc(F)cc1)C(=O)Nc1cc(S(=O)(=O)N2CCOCC2)ccc1N1CCN(C)CC1 (stereo not drawn)	-4.8	-0.8	-9.4%	x	-1.6%	0.5%
COc1cccc(CN(C)C(=O)CNC(=O)c2ccc3c(c2)OCO3)c1OC	-13.7	0.0	16.7%	x	-4.8%	-8.9%
COc1cccc(NC(=O)C(C)Sc2nnc(C3CC3)n2C2CC2)c1 (stereo not drawn)	6.4	-0.1	-9.3%	x	-65.2%[inhibitor]	0.6%
CCCc1nn2c(=O)cc(COC(=O)c3ccccc3NC(=O)COc3ccccc3)nc2s1	-15.1	0.1	x	x	x	-0.8%
COc1ccc(NC(=O)C(C)Sc2cc(-c3ccccc3)nc(C)n2)cc1Cl (stereo not drawn)	33.0	2.3	x	x	x	0.7%
CCCOc1ccc(C(CC(=O)O)NC(=O)C23CC4CC(CC(C4)C2)C3)cc1 (stereo not drawn)	0.7	-0.3	-19.9%	2.5	u	1.3%
Cc1ccccc1Cn1c2ccccc2c2cnn(CC(=O)NCCCN3CCN(C)CC3)c(=O)c21	-7.1	-0.4	2.0%	x	16.5%	u
CN(CC(=O)Nc1ccccc1Cl)C(=O)COC(=O)c1cc(S(=O)(=O)N(C)C)ccc1N1CCCC1	-3.1	0.1	-13.8%	x	-24.2%	1.2%
CCN(CC(=O)Nc1ccccc1C(=O)NC1CC1)Cc1cccs1	-3.4	0.3	-8.9%	x	6.0%[15.4 µM]	-0.5%
COC(=O)CNC(=O)CN1c2cccc3cccc(c23)S1(=O)=O	-17.6	-0.4	5.8%	2.6	-1.1%	u
O=C(N/N=C/c1ccc(O)c(Br)c1)c1cc2c(ccc3ccccc32)o1	-0.5	2.4	-15.4%	x	10.6%	-21.7%
O=C(CCN1CCN(c2ccccc2)CC1)NNC(=O)c1ccccc1	4.8	-0.4	x	x	-21.0%	0.9%
O=C1/C(=C/N(C(=O)c2ccco2)c2ccc(Br)cc2)Sc2ccccc21	7.4	2.7	-1.5%	u	-58.2%[inhibitor]	-2.3%
CCn1c(SCc2nc3ccccc3[nH]2)nnc1-c1ccncc1	8.5	1.6	5.9%	3.4	-7.1%	-6.4%
O=C(O)c1cc(O)ccc1NC(=O)C(c1ccccc1)c1ccccc1	-8.4	-1.0	5.2%	1.1	-0.3%	4.8%
C[C@H]1CN([C@@H](C)CO)C(=O)c2cc(Br)cnc2O[C@@H]1CN(C)S(=O)(=O)c1ccccc1	-5.5	-0.3	x	x	24.4%	0.1%

Further structures follow:
SMILES	TRPML1 blocker	TRPML1 ag	gsp antag	Menin MLL FP FL	gsp agonist	ClpP mod
Cn1c(SCC(=O)N2CCN(c3ccccc3)CC2)nnc1-c1ccco1	-5.8	-0.4	3.7%	1.6	u	0.6%
CCOc1ccc(OCc2ccc(C(=O)N3CCCC3)o2)cc1	-1.7	1.1	u	0.4	-7.4%	-1.9%
COC(=O)c1ccccc1NC(=O)NCc1ccc2c(c1)OCO2	6.8	1.0	14.4%	5.2	-22.1%	-0.3%
CN(C)/C=N/c1sc2c(c1C#N)CC(C)(C)NC2(C)C	4.6	0.7	2.4%	-0.4	9.8%	1.0%
OCC1(Cc2ccccc2)CCCN(Cc2ccn[nH]2)C1 (stereo not drawn)	-2.8	-1.0	15.3%	1.7	24.1%	3.1%
CC(=O)c1ccc(OC(C)C)c(CSc2nc(O)cc(=O)[nH]2)c1	4.2	0.2	0.9%[15.4 µM]	1.8	-11.7%	-2.0%
Cc1nc2c(=O)n(-c3ccc(F)c(Cl)c3)nc(C)c2s1	-8.2	-0.4	9.8%	-2.0	0.1%[15.4 µM]	-0.3%
CCOC(=O)c1cc2sc(C)cc2n1C(C)C(=O)OCC (stereo not drawn)	-4.6	2.6	-16.1%	0.8	-3.3%	4.1%

An unsorted share of the library, and some 2.1% of all compounds hit somewhere here.
